Bioassay records as filed in PubChem BioAssay.
miR-21 reporter: raises the signal of a miR-21 reporter; 340,000 tested, under 10 active; HeLa miR-21 FLuc reporter, luciferase, 48 h; AID 2288; Potency, µM (doses to about 38.3 µM), inactives show at the top dose reporter change, positive = more light; active = well fitted rising curve with a large enough effect; inconclusive = small, poorly fitted or top-dose-only effect; inactive = no such curve, though single readings can be large or run the other way;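 also: % of control where 0% means no effect; miR-21 action dims this reporter so a rising signal means less miR-21 action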
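Luminescence from a firefly luciferase reporter carrying a miR-21 binding site downstream, stably expressed under a CMV promoter in HeLa cells that make miR-21 endogenously, reports miRNA modulation after 48 h compound exposure up to approximately 40uM final.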
The depositor's hits bear a star; ? = inconclusive; [ ] = another dose, or the depositor's remark. These rows are one share of the data; rates above refer to the full screens.

The opening 17 compounds as a preview:
SMILES | miR-21 reporter
CC(C)CNC(=O)C(=O)Nc1c2c(nn1-c1ccc(Cl)cc1)CSC2 | -7%
COc1cccc(NC(=O)C2CC(=O)N(c3ccc(Br)cc3)C2)c1 (stereo unspecified) | -6%
O=[N+]([O-])c1cc(-c2nc(-c3ccccc3)no2)ccc1N1CCN(c2ccccc2)CC1 | -5%
O=C(Cn1c(=O)c2cccn2c2ccc(F)cc21)N1CCN(c2ccccc2F)CC1 | -1%
COc1ccc(CNC(=O)CCc2cn(Cc3cc(C)ccc3C)c3ccccc23)cc1OC | 10%
COc1ccc(C2=Nc3ccccc3N(CC(=O)Nc3cccc(C(C)=O)c3)C(=O)C2)cc1 | -7%
Cc1ccccc1-c1noc(-c2ccccc2OCC(=O)Nc2ccccc2[N+](=O)[O-])n1 | 26%
CCOCCCNC(=O)CCc1nnc2ccc(N3CCN(c4cccc(OC)c4)CC3)nn12 | 3%
Cc1cc(C)cc(-n2c(SCC(=O)N3CCCC3)nc3c([nH]c4ccccc43)c2=O)c1 | 1%
O=C(NCCc1cccs1)c1ccc(Cn2c(SCc3cccc(F)c3)nc3cccnc32)cc1 | 2%
CCc1ccc(NC(=O)C2=C(C)C(=O)OC23CCCCC3)cc1 | 8%
COc1ccc(NC(=O)c2c(C)oc3ccc(O)c(CN4CCCC(C)C4)c23)cc1Cl (stereo unspecified) | ?
CCOCCCNC(=O)C(NC(=O)C1CCC(C)CC1)C(C)C (stereo unspecified) | -2%
CC1=C(C(=O)Nc2cccc(F)c2)C2(CCCCCC2)OC1=O | 5%
NC(=O)c1cc(S(=O)(=O)N2CCN(c3ccc(F)cc3)CC2)cs1 | 9%
CCCCOc1ccc(C(=O)NCCc2sc(-c3ccc(OC)c(OC)c3)nc2C)cc1 | 4%
COc1ccc(OC)c(NC(=O)/C=C/c2ccc(C)o2)c1 | -16%

The whole of this part, from the first entry:
SMILES | miR-21 reporter
CC(C)CNC(=O)C(=O)Nc1c2c(nn1-c1ccc(Cl)cc1)CSC2 | -7%
COc1cccc(NC(=O)C2CC(=O)N(c3ccc(Br)cc3)C2)c1 (stereo unspecified) | -6%
O=[N+]([O-])c1cc(-c2nc(-c3ccccc3)no2)ccc1N1CCN(c2ccccc2)CC1 | -5%
O=C(Cn1c(=O)c2cccn2c2ccc(F)cc21)N1CCN(c2ccccc2F)CC1 | -1%
COc1ccc(CNC(=O)CCc2cn(Cc3cc(C)ccc3C)c3ccccc23)cc1OC | 10%
COc1ccc(C2=Nc3ccccc3N(CC(=O)Nc3cccc(C(C)=O)c3)C(=O)C2)cc1 | -7%
Cc1ccccc1-c1noc(-c2ccccc2OCC(=O)Nc2ccccc2[N+](=O)[O-])n1 | 26%
CCOCCCNC(=O)CCc1nnc2ccc(N3CCN(c4cccc(OC)c4)CC3)nn12 | 3%
Cc1cc(C)cc(-n2c(SCC(=O)N3CCCC3)nc3c([nH]c4ccccc43)c2=O)c1 | 1%
O=C(NCCc1cccs1)c1ccc(Cn2c(SCc3cccc(F)c3)nc3cccnc32)cc1 | 2%
CCc1ccc(NC(=O)C2=C(C)C(=O)OC23CCCCC3)cc1 | 8%
COc1ccc(NC(=O)c2c(C)oc3ccc(O)c(CN4CCCC(C)C4)c23)cc1Cl (stereo unspecified) | ?
CCOCCCNC(=O)C(NC(=O)C1CCC(C)CC1)C(C)C (stereo unspecified) | -2%
CC1=C(C(=O)Nc2cccc(F)c2)C2(CCCCCC2)OC1=O | 5%
NC(=O)c1cc(S(=O)(=O)N2CCN(c3ccc(F)cc3)CC2)cs1 | 9%
CCCCOc1ccc(C(=O)NCCc2sc(-c3ccc(OC)c(OC)c3)nc2C)cc1 | 4%
COc1ccc(OC)c(NC(=O)/C=C/c2ccc(C)o2)c1 | -16%
O=C(Nc1ccc(F)cc1)[C@@H](c1ccccc1)N1Cc2ccccc2C1=O | 3%
COc1cccc(CNC(=O)CCNS(=O)(=O)c2ccc3c(c2)CCCC(=O)N3)c1 | 2%
COc1ccc(NC(=O)C(CC(C)C)NS(=O)(=O)c2ccc3c(c2)oc(=O)n3C)cc1Cl (stereo unspecified) | -28%
CCc1cccc(C)c1NS(=O)(=O)c1ccc2c(c1)CC(C)N2C(=O)C1CC1 (stereo unspecified) | 22%
COc1ccccc1NC(=O)CSc1ccc(-c2sc(C)nc2C)nn1 | -16%
CCc1ccc(NC(=O)N2CCN(c3nnc(C)c4c(C)n(-c5ccc(Cl)cc5)nc34)CC2)cc1 | -4%
COc1cccc(NC(=O)CN2C(=O)CC(c3ccco3)Sc3ccccc32)c1 (stereo unspecified) | 6%
Fc1ccc(-c2noc3ncnc(Nc4ccc(F)cc4F)c23)cc1 | -21%
COc1ccc(OC)c(CNC(=O)C2CCCN(c3ncnc4onc(-c5ccc(F)cc5)c34)C2)c1 (stereo unspecified) | -4%
CCCCN(C)CCCNC(=O)c1cc(=O)[nH]c2ccc(S(=O)(=O)N3CCCCC3)cc12 | -2%
Cn1c(=O)c2c(n3ncnc13)NC(=O)CC2c1cccc(F)c1 (stereo unspecified) | -6%
O=C(NCCc1nc2ccccc2n1Cc1ccccc1F)c1ccc(F)cc1 | 8%
COc1ccccc1C1Nc2ccccc2-n2c(-c3ccccc3)c3c(=O)n(C)c(=O)n(C)c3c21 (stereo unspecified) | 21%
CCOC(=O)c1ccc(Oc2nc(C)nc3c2oc2ccccc23)cc1 | 8%
COc1ccc(N2CCN(C(=O)c3ccc(Nc4nc5ccccc5n5nnnc45)cc3)CC2)cc1 | 4%
COc1cccc(CNC(=O)C(=O)NCC(c2ccco2)S(=O)(=O)c2ccccc2)c1 (stereo unspecified) | 19%
COc1ccc(Br)cc1C1Sc2ccccc2NC2=C1C(=O)c1ccccc12 (stereo unspecified) | 18%
COc1cccc(CN2C(=O)C3(SCC(=O)N3c3ccc(F)cc3)c3ccccc32)c1 (stereo unspecified) | ?
Cc1sc2ncn(CC(=O)N(C)c3cccc(C(F)(F)F)c3)c(=O)c2c1S(=O)(=O)N1CCN(c2ncccn2)CC1 | 18%
COc1cccc(OC)c1C(=O)Nc1cccc(-c2cn3ccsc3n2)c1 | -10%
COc1cccc(NC(=O)Cn2c(=O)n(Cc3ccco3)c(=O)c3cc(OC)c(OC)cc32)c1 | 2%
COc1ccc(NC(=O)CN2C(=O)CSc3ccc(S(=O)(=O)N(C)C)cc32)cc1Cl | -7%
CC(=O)Nc1ccc(C(=O)Nc2ccc3c(c2)N(C2CCCC2)C(=O)c2ccccc2S3)cc1 | ?
CCOc1ccccc1NC(=O)CSc1c(C)cnc2c1c(=O)n(C)c(=O)n2C | -1%
CCOC(=O)c1noc2nc(C)n(CC(=O)Nc3ccccc3F)c(=O)c12 | 3%
Cc1ccccc1-n1c(/C=C/c2c(C)n(C)c3ccccc23)nc2ccccc2c1=O | -2%
Cc1cccc(Nc2cc(C)nc3nc(Cc4ccc(Cl)cc4)nn23)c1 | 0%
Cc1cc(S(=O)(=O)C(CNC(=O)COc2ccccc2)c2cccs2)ccc1F (stereo unspecified) | -8%
O=C(CSc1nc(=O)n(Cc2ccco2)c2c1CCC2)NCc1ccc(F)cc1 | -4%
CCn1cc(S(=O)(=O)c2cccc(C)c2)c(=O)c2cc(F)c(N3CCN(c4ccccc4)CC3)cc21 | -1%
CCOC(=O)c1cc(OC(=O)c2cccc(F)c2)n(-c2ccccc2)n1 | 3%
CC1=C(C(=O)Nc2ccc(C)cc2C)C(c2ccccc2F)n2nc(SCC(=O)c3ccc(C)cc3)nc2N1 (stereo unspecified) | 2%
CCOC(=O)c1c(C)c(-c2ccccc2)n(CC(=O)NCc2cccc(OC)c2)c1C | -2%
Cc1ccc2c(c1)sc1nc(-c3cc4ccccc4oc3=O)cn12 | 13%
O=C1c2[nH]nc(-c3ccccc3O)c2C(c2cccc(O)c2)N1Cc1ccncc1 (stereo unspecified) | 8%
CCOc1ccccc1NC(=O)CC(c1ccc(F)cc1)N1Cc2ccccc2C1=O (stereo unspecified) | ?
COCCCn1c(=N)c(C(=O)NCc2ccco2)cc2c(=O)n3cccc(C)c3nc21 | 3%
Cc1cc(C)cc(NC(=O)CCCn2c(=O)c3cccn3c3ccccc32)c1 | 22%
Cc1ccc(NC(=O)CSc2nnc(C)n3c2cc2sccc23)c(C)c1 | 0%
Cc1ccc(CN2CCN(C3CCN(C(=O)OC(C)(C)C)CC3)C(=O)C2=O)cc1 | -1%
CCCCn1nc(NC(=O)c2cccc(Cl)c2)c2cc3ccccc3nc21 | -1%
O=C(CSc1nc(-c2ccc(F)cc2)cc(C(F)(F)F)n1)NCCc1ccccc1 | -15%
Cn1nnc2c(NCc3ccccc3)ncnc21 | -23%
Further compounds follow.
SMILES | miR-21 reporter
CCOC(=O)c1sc2ccccc2c1S(=O)(=O)NCc1ccccc1OC | 0%
CCC(=O)N1CCc2cc(Br)cc(S(=O)(=O)N3CCCC(C(=O)N(C)c4ccc(Br)cc4)C3)c21 (stereo unspecified) | 18%
O=C(Cn1ncc2c3ccccc3n(Cc3cccc(Cl)c3)c2c1=O)N1CCCCC1 | 24%
COC(=O)c1ccc(NC(=O)CCn2cnnn2)c(C)c1 | 3%
Cc1cc(NC(=O)CN2C(=O)C(C)(C)c3ccccc32)ccc1Br | 11%
COc1cccc(-n2c(SCc3ccc(F)cc3)nc3c([nH]c4ccccc43)c2=O)c1 | 21%
COc1cc(NC(=O)Cn2cnc3c2c(=O)n(C)c(=O)n3C)c(OC)cc1Cl | 5%
COc1ccccc1CNC(=O)COc1cc(=O)n(C)c2ccccc12 | 2%
CCc1ccc2nc(N3CCC(C(=O)O)CC3)sc2c1 | -3%
COc1ccc(-c2nnc(SCC(=O)Nc3cccc(C(F)(F)F)c3)s2)cc1 | -43%
O=C(CSc1n[nH]c(-c2ccccc2Cl)n1)NCc1ccc(F)cc1 | 3%
Cc1ccc(C)c(N2CCN(CCCNC(=O)c3cnn(-c4ccccc4)c3C3CCN(C(=O)OC(C)(C)C)CC3)CC2)c1 | 3%
COc1ccc(N2CCN(c3ncnc4c3nc3n4CCCCC3)CC2)cc1 | 3%
CC1CCCCN1C(=O)CSc1nc2ccccc2nc1Cc1ccccc1 (stereo unspecified) | 23%
COC(=O)c1ccccc1NC(=O)[C@H]1O[C@@H]2OC(C)(C)O[C@@H]2[C@H]2OC(C)(C)O[C@H]21 | -15%
CCc1ccc(NC(=O)CC2C(=O)N(c3cccc(C)c3)C(=O)N2Cc2ccc(F)cc2)cc1 (stereo unspecified) | 20%
O=C1COc2cc(S(=O)(=O)NCc3ccco3)c(Cl)cc2N1 | -1%
O=C(c1ccc2c(c1)N(Cc1ccc(Cl)cc1)C(=O)c1ccccc1S2(=O)=O)N1CCc2ccccc21 | 3%
COc1ccccc1N1CCN(S(=O)(=O)CCNC(=O)C(c2ccccc2)c2ccccc2)CC1 | 2%
COc1ccc(NC(=O)CSC2=Nc3ccccc3C3=NC(CC(=O)NCc4ccccc4OC)C(=O)N23)cc1Cl (stereo unspecified) | -10%
CCCCc1nn2c(=O)cc(COC(=O)c3cccc(Cl)c3)nc2s1 | 3%
CCOc1ccc(CNS(=O)(=O)c2cc3c(cc2C)NC(=O)CO3)cc1 | 3%
CCCCC12CN3CC(C)(CN(C1)C3c1cc(Br)ccc1O)C2=O (stereo unspecified) | 15%
CCOC(=O)N1CCc2c(sc(NCc3cccc(F)c3)c2C(=O)Nc2ccc(OC)cc2)C1 | 4%
CCc1cccc(C)c1NC(=O)CN1C(=O)c2ccccc2Sc2ncccc21 | -2%
COc1ccc(NC(=O)c2cc3c(-c4ccccc4F)nn(C)c3s2)c(OC)c1 | -1%
CCc1nc(-c2ccc(C)c(S(=O)(=O)N3CCN(c4ccc(C(C)=O)cc4)CC3)c2)no1 | 23%
Cc1c2cnn(CC(=O)NCCc3ccccc3)c(=O)c2c(C)n1Cc1ccccc1 | 2%
CCOc1ccc(NC(=O)Cn2cc(C(=O)c3ccc(OC)cc3)c(=O)c3cc4c(cc32)OCO4)cc1 | -10%
CC(=O)N1c2ccc(S(=O)(=O)NCC3CCC(C(=O)Nc4ccc(F)cc4)CC3)cc2CC1C (stereo unspecified) | 29%
Clc1ccc(CNc2cc(-c3ccccc3)nc3nncn23)cc1 | 24%
O=c1oc2ccccc2c2c1C1O[C@](c3ccsc3)(Cc3ccccc31)O2 | -6%[7.66 µM]
COc1cccc(NC(=O)c2sc3nc(C)c(C(=O)Nc4ccc(C)cc4C)c(-c4ccco4)c3c2N)c1 | 8%
COCCN(Cc1ccco1)C(=O)Cn1ncc2c([nH]c3ccccc32)c1=O | 9%
CCOc1ccc2nc(N3CCCC(C(=O)NCCc4ccc(Cl)cc4)C3)sc2c1 (stereo unspecified) | 4%
COc1cccc(CNC(=O)CSC2=Nc3ccccc3C3=NC(C(C)C)C(=O)N23)c1 (stereo unspecified) | -3%
CCCOC(=O)C(C)n1nnc2sc(-c3ccccc3)cc2c1=O (stereo unspecified) | 1%
COCc1nc2ccccc2n1CCOc1cccc(C)c1 | -17%
Cc1cccc(OCCOCCn2c(-c3ccc(Cl)cc3)nc3ccccc3c2=O)c1C | -27%
CCOC(=O)c1ccc(NC(=O)CN2C(=O)CC(c3ccc(C)c(C)c3)=Nc3ccccc32)cc1 | -17%
CCC(Nc1ccc(-c2nc(-c3ccco3)no2)cc1[N+](=O)[O-])c1ccccc1 (stereo unspecified) | -5%
COc1ccc(N2CCN(S(=O)(=O)CCNC(=O)Cc3ccc(-c4ccccc4)cc3)CC2)cc1 | 0%
CCc1ccc(-n2nc(CO)c(C(=O)NCc3ccccn3)n2)cc1 | 7%
Cc1cc(C)cc(OCC(=O)N(Cc2ccc(Cl)cc2)CC2CCCO2)c1 (stereo unspecified) | 11%
COc1ccc(-c2noc(-c3ccc(NCCc4ccccc4)c([N+](=O)[O-])c3)n2)cc1OC | 1%
CCc1ccc(N(CC)C(=O)c2ccc3c(=O)n4c(nc3c2)CCCCC4)cc1 | 26%
Cc1cccc(NC(=O)Cn2cc(C(=O)C3CCCCC3)c3ccccc32)c1 | -1%
N#Cc1ccccc1NC(=O)CSc1ncn[nH]1 | -4%
